2A StopGo – lowers the luciferase signal of an FMDV 2A StopGo reporter. human cells with a luciferase reporter of 2A StopGo recoding; control for the full effect not named in the record. Potency, µM (doses to about 57.9 µM), for the others: at the highest dose signal change, negative = less light. 410,000 tested, 1.2% active; active = well fitted falling curve with a large enough effect; inconclusive = small, poorly fitted or top-dose-only effect; inactive = no such curve, though single readings can be large or run the other way; tested in HEK293T cells; note: % is set by controls: 0 for no effect and ±100 for the full control effect; nearly all actives have a fitted effect of over 45% in size; luciferase light after 4 h
LASV entry inh – blocks Lassa virus binding to or entry into cells. Potency, µM (top dose mostly 37.9 µM), without a hit: at the highest dose activity change, negative = inhibition, usual class: inhibitors. AID 540256. 300,000 tested, 1.2% active. Lassa virus pseudotype entry inhibition, cell reporter; control for the full effect not named in the record; active means well fitted inhibition curve with a large enough effect; inconclusive means small, poorly fitted or top-dose-only effect, or effect the other way; inactive means flat fitted curve, though single readings scatter; tested in HEK293 cells; note: % is set by controls: 0 for no effect and ±100 for the full control effect; nearly all actives have a fitted effect of over 50% in size; luciferase read-out
Cruzain noTriton – inhibitors of Trypanosoma cruzi cruzain without detergent; P25779; purified cruzain, Z-FR-AMC fluorescence, no detergent; Potency, µM, inactives show max response, negative = inhibition, actives largely listed as inhibitors; 200,000 tested, 2.3% active; active = well fitted curve in the direction sought with a large enough effect; inconclusive = small, poorly fitted or top-dose-only effect, or another doubt; inactive = no such curve, though single readings can be large; an effect the other way counts as inactive or inconclusive;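 note: plate controls were enzyme without inhibitor for no effect and buffer without enzyme for full effect; nearly all actives have a fitted effect of over 40% in size; top concentration of the series not given in the record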
Target sequence (P25779 123-467 limits assumed): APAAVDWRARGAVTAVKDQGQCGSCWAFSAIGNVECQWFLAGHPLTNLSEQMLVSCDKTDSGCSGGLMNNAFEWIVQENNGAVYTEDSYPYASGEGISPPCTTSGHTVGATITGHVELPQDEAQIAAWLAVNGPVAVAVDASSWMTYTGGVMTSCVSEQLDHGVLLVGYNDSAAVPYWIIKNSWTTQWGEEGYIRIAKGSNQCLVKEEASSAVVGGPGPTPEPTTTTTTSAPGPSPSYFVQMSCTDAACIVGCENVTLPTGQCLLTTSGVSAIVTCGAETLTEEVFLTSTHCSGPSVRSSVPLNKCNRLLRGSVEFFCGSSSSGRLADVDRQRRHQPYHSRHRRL
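Detergent-free condition (0.00005% Triton X-100) in acetate buffer pH 5.5 with DTT. 1.5 nM enzyme and compound were pre-mixed 15 min, then 2 uM Z-FR-AMC substrate added; reaction progress from fluorescence change between first and third reads (60 s).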
MARV entry inh – inhibitors of Marburg virus binding or cell entry. Marburg virus pseudotyped entry inhibition, cell reporter; control for the full effect not named in the record; about a third of the inactives were read at about 46 µM. Potency, µM (top dose mostly 37.8 µM), for inactives: at the highest dose activity change, negative = inhibition, actives largely listed as inhibitors. 300,000 tested, 1.8% active. AID 540276; active = well fitted inhibition curve with a large enough effect; inconclusive = small, poorly fitted or top-dose-only effect, or effect the other way; inactive = flat fitted curve, though single readings scatter; tested in HEK293 cells; about a fifth of its hits are not listed in these tables; note: % is set by controls: 0 for no effect and ±100 for the full control effect; luciferase read-out
Cruzain Triton – blocks cruzain activity in presence of Triton detergent; P25779; purified cruzain, Z-FR-AMC fluorescence, 0.01% Triton; Potency, µM, for inactives: max response, negative = inhibition, actives largely listed as inhibitors; 200,000 tested, 0.43% active; active = well fitted curve in the direction sought with a large enough effect; inconclusive = small, poorly fitted or top-dose-only effect, or another doubt; inactive = no such curve, though single readings can be large; an effect the other way counts as inactive or inconclusive;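 note: plate controls were neutral wells for no effect and buffer without enzyme for full effect; nearly all actives have a fitted effect of over 40% in size; top concentration of the series not given in the record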
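Sodium acetate buffer (100 mM, pH 5.5) containing 5 mM DTT and 0.01% Triton X-100 hosted 1.5 nM cruzain and test compound for 15 min at room temperature. Cleavage of 2 uM Z-FR-AMC was then tracked by fluorescence.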
RE007 growth inh – less growth of the S. pombe RE007 Vpr strain; S. pombe RE007 Vpr strain, BacTiter-Glo ATP luminescence, 24 h; control for the full effect not named in the record; Potency, µM (titrated, usually from 92.2 µM), inactives show at the top dose activity change, negative = less growth; 360,000 tested, 0.21% active; AID 651644; active = well fitted falling curve with a large enough effect; inconclusive = small, poorly fitted or top-dose-only effect; inactive = no such curve, though single readings can be large or run the other way;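 note: % is set by controls: 0 for no effect and ±100 for the full control effect; nearly all actives have a fitted effect of over 50% in size; the assay follows cell death caused by Vpr and the record does not say whether a fall means rescue or toxicity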
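Fission yeast strain RE007, carrying one chromosomally integrated HIV-1 vpr copy, was seeded at OD 0.01 in PMG+AL medium with 23 nL pinned compound. After 24 h at 30 °C and 99% humidity, viability was read by BacTiter-Glo luminescence.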
NS1 function inh – influenza NS1 inhibition; S. cerevisiae slowed by influenza A NS1, growth recovery by OD600; Potency, µM (highest dose often 46.1 µM), for inactives: top-dose activity, positive = more growth; 270,000 tested, 0.4% active; note: actives are rising curves; nearly all actives have a fitted effect of over 50% in size
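Growth recovery, yeast-based: influenza A NS1 expressed in S. cerevisiae causes slow growth, and suppressors are detected by OD600. The parent strain without NS1 is used as positive control.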
SARS PLP yeast – inhibitors of SARS-CoV papain-like protease in yeast; S. cerevisiae expressing SARS-CoV PLpro, growth rescue; control for the full effect not named in the record; Potency, µM (titrated, usually from 32.9 µM), inactives show top-dose activity, positive = growth rescue; 330,000 tested, 0.19% active; AID 485353; note: 0% is about no effect; nearly all actives have a fitted effect of over 55% in size; growth read by luminescence after 48 h
Starred values were filed as active, the others as inactive; ? = inconclusive; . = not tested or not shown; & = joins results of further samples; [ ] = another dose, or the depositor's remark. Unless noted, calls come from the whole dose curve; as a rule, active means well fitted rising curve with a large enough effect; inconclusive means small, poorly fitted or top-dose-only effect; inactive means no such curve, though single readings can be large or run the other way. Potency is the fitted concentration of half-maximal effect. Rows are unselected; 4.5% or so of the library scored in one or more.

structure | 2A StopGo | LASV entry inh | Cruzain noTriton | MARV entry inh | Cruzain Triton | RE007 growth inh | NS1 function inh | SARS PLP yeast
CCC1CCCCN1CCCNC(=O)C1CCN(c2nnc(-n3cccc3)s2)CC1 (configuration not stated) | -4.5% | . | . | . | . | -9.7% | -5.2% | -4.5%
CCN(CC)S(=O)(=O)c1ccc(C(=O)Oc2ccc3c(c2)OCO3)cc1 | 25.8% | 1.0% | -10.9% | ? | -0.1% | -8.5% | -10.1% | -0.1%
O=C(O)c1ccccc1C(=O)NC1=NN(c2ccccc2)CC1 | -4.2% | . | . | . | . | 16.3% | 2.3% | -0.6%
CCOC(=O)c1ccc(NC(=O)CN2C(=O)CCC2=O)cc1 | -3.9% | 16.9% | 3.8% | 14.6% | 1.0% | 3.4% | -2.0% | 15.7%
Cc1nn(Cc2ccc(Cl)cc2)c2sc(C(=O)O)cc12 | -14.1% | 13.3% | . | -2.9%[46.1 µM] | . | -1.7% | . | -0.7%
C/C(=N/NC(=O)Cc1c(C)[nH][nH]c1=O)c1ccc(O)cc1 | -10.5% | ? | 5.8% | 3.3% | 1.2% | -4.3% | 5.8% | 6.5%
COc1ccc(N(Cc2cc3ccccc3[nH]c2=O)S(C)(=O)=O)cc1 | -18.6% | -5.7% | -2.7% | 11.7% | -3.7% | -7.3% | -1.7% | 18.5%
COc1ccc(CNC(=O)CSc2ccc(Br)cc2)cc1OC | -19.7% | -19.9% | -3.2% | 2.3% | -2.6% | -15.1% | -10.3% | -18.6%
N#Cc1cccc(NC(=O)CNc2cccc(S(=O)(=O)N3CCCC3)c2)c1 | 1.8% | ? | . | ? | . | 58.0% | . | -1.3%
CCOCCCNc1ccc(N2C(=O)CCCC2=O)cc1[N+](=O)[O-] | -11.7% | ? | . | 29.0%[46.1 µM] | . | -1.4% | 4.8% | 1.0%
O=C(NC1CCCCCC1)c1nc2ncccn2n1 | 15.2% | -0.2% | 1.4% | 3.4% | 3.1% | 5.8% | -2.8% | 2.7%
CC1=C(C(=O)Nc2ccccc2)C(c2ccc3c(c2)OCO3)C2=C(CCCC2=O)N1 (configuration not stated) | 22.9% | 11.1% | -9.3% | -5.5%[46.1 µM] | -4.9% | 9.5% | 2.5% | 4.6%
COc1ccc(-c2cc(C(=O)Nc3c(C)nn(Cc4ccc(C)cc4)c3C)no2)cc1OC | 0.0% | -16.2%[46.1 µM] | ? | ? | -9.0% | . | . | .
CC(C)CC(=O)N1CC(=O)Nc2ccc(F)cc2C1c1ccccc1 (configuration not stated) | -12.2%&-11.2% | ? | 3.0% | ? | -0.9% | -7.1% | 0.0% | 2.5%
CCOC(=O)C1CCN(c2cc(C)nc3ccc(OC)cc23)CC1 | 0.0% | ? | . | ? | . | -8.7% | . | -1.3%
CCOC(=O)COc1cccc2c(=O)n(CC(=O)NCCc3ccccc3)ccc12 | 0.0% | -4.5% | 3.0% | 0.6% | 0.8% | -9.1% | 6.9% | -18.3%
CCCCn1c(N)c(N(CC(C)C)C(=O)c2ccc(N(C)S(=O)(=O)c3ccc(C)cc3)cc2)c(=O)[nH]c1=O | -5.9% | 0.5% | . | 7.8% | . | -0.4% | . | -1.3%
O=C(CSc1nnc2scc(-c3ccc(Cl)cc3)n12)NCc1ccco1 | 11.9% | 21.8%[14.3 µM] | -21.0% | 8.1% | -2.2% | 5.5% | 5.0% | 2.9%
CC(C)Cc1nnc(NS(=O)(=O)Cc2ccccc2)s1 | 18.5% | 1.7% | 3.6% | 13.8% | 4.9% | 1.3% | 10.6% | ?
CCc1ccccc1NC(=O)CCC(=O)N1CCSc2ccccc21 | 0.0% | . | . | . | . | -2.8% | 7.1% | -3.1%
Cc1cccc(N(C)C(=O)C2CCN(S(=O)(=O)c3cccc4nonc34)CC2)c1 | -4.4% | -25.8%[46.1 µM] | ? | . | -0.3% | . | . | .
O=C(c1sc2ccccc2c1Cl)N(Cc1ccccc1)C1CCS(=O)(=O)C1 (configuration not stated) | -21.1% | 0.8% | 4.1% | -21.0% | 1.4% | -22.7% | ? | ?
Cc1ccccc1CN1CCN(CC(=O)NCc2ccccc2Cl)C1=O | 40.9%[activator] | 0.3%[46.1 µM] | -27.6% | . | -0.3% | . | . | .
CCOC(=O)c1[nH]c(C)c(CCC(=O)Nc2cc(C)ccc2OC)c1C | -18.9% | -18.1%[46.1 µM] | -10.3% | . | 2.3% | . | . | .
O=C1c2ccccc2NC(c2ccc(O)cc2)N1Cc1ccco1 (configuration not stated) | 1.3% | -7.9% | 1.4% | 10.7% | -10.2% | 9.0% | 10.5% | 4.8%
CC(=O)NNc1ncnc2c1cnn2-c1ccc(C)c(C)c1 | 12.5% | -0.2% | . | 26.7%[46.1 µM] | . | 16.6% | . | 1.3%
O=C(Cn1c(C(F)(F)F)nc2ccccc21)c1ccc(Cl)cc1 | -24.7% | -3.0% | -4.6% | -17.5% | -3.2% | -6.9% | 6.1% | 2.6%
CCc1cccc(NC(=O)Cn2c(=O)n(CC3CCC(C(=O)NCCc4ccccc4)CC3)c(=O)c3ccccc32)c1 (configuration not stated) | 4.9% | 24.4%[46.1 µM] | -15.7% | 6.2%[46.1 µM] | 1.9% | . | . | .
CCOC(=O)C1=NOC2C3CC(C12)C1C(=O)N(CCc2ccc(OC)c(OC)c2)C(=O)C31 (configuration not stated) | -2.7% | . | . | . | . | 2.8% | -1.3% | -0.2%
CC(C)CC(=O)NC(=S)Nc1ccc(N2CCN(C(=O)c3cccs3)CC2)cc1 | ? | 5.62µM* | . | ? | . | -7.8% | 9.0% | 1.1%
O=C(Cn1cc(SCc2ccc(F)cc2)c2ccccc21)N1CCOCC1 | 50.8%[activator] | 13.2% | ? | ? | -8.5% | -6.8% | -6.1% | -8.2%
COc1ccc(C(=O)Nc2ccc(NC(=O)c3ccccc3)cc2)cc1S(=O)(=O)N1CCOCC1 | -17.3% | . | . | ? | . | 14.7% | 1.8% | -0.5%
O=C(Nc1cc(Cl)ccc1N1CCOCC1)c1cc2ccccc2o1 | ? | . | . | -19.6%[46.1 µM] | . | 0.6% | 3.1% | 3.9%
COc1cccc(NC(=O)CNC(=O)c2ccc(OC)c(OC)c2)c1 | -1.2% | 1.8%[46.1 µM] | . | 6.1%[46.1 µM] | . | 5.6% | -0.9% | 0.7%
COCCn1c(C)c(C)c2c(NCCc3ccccc3)ncnc21 | ? | . | . | . | . | -2.6% | -7.3% | -0.1%
COc1ccc(C2=NS(=O)(=O)N(C)C(C(=O)N3CCOCC3)=C2)cc1OC | -17.1% | . | . | . | . | -6.7% | 5.2% | 3.7%
CCn1cc(/C=C(\NC(=O)c2ccc(OC)cc2)C(=O)N2CCN(C)CC2)c2ccccc21 | -15.9% | . | . | . | . | -21.6% | -1.1% | 9.5%
CC1(C)CC(=O)CC(=Nc2ccc3[nH]c(=O)[nH]c3c2)C1 | 8.9% | -0.6% | -7.9% | -0.4% | 1.0% | -8.7% | 2.9% | -2.0%
O=C(Nc1ccccc1C(=O)N1CCOCC1)c1cc2ccccc2o1 | -14.7% | . | . | . | . | -2.0% | 2.1% | -3.3%
O=C(CCc1ccccc1)N=C1SC2CS(=O)(=O)CC2N1Cc1ccccc1 (configuration not stated) | 6.7% | . | . | . | . | 19.7% | 2.7% | 2.7%
COc1ccc(S(=O)(=O)c2nnn(-c3ccccc3F)c2C)cc1 | -3.7% | -13.7%[46.1 µM] | -13.5% | 22.4%[46.1 µM] | -2.0% | . | . | .
O=C(Nc1cc(C(F)(F)F)ccc1N1CCOCC1)c1c(F)c(F)c(F)c(F)c1F | -6.1% | -0.5% | -29.8% | 0.6% | 3.8% | 15.5% | 6.9% | -0.9%
COc1c2ccc(C(=O)NCCCCc3ccccc3)cc2nn1C | -27.4% | . | 6.9% | . | 8.4% | 0.6% | 0.4% | -1.9%
COc1cc(/C=C2\SC(=S)N(N3CCOCC3)C2=O)ccc1O | -10.3% | . | . | . | . | 0.0% | 3.4% | 0.3%
CN(C)Cc1nc2c(c(=O)[nH]1)C(C)(C)Cc1ccccc1-2 | -18.9% | -2.1% | -2.2% | -0.2% | 1.2% | 5.0% | 12.1% | 13.2%
Cc1cc(=O)oc2c3c(cc(OCC(=O)NCc4ccccn4)c12)OC(C)(C)CC3 | ? | . | . | . | . | -5.2% | -30.6% | -14.4%
Cc1noc(C)c1COc1ccc(CC(=O)NC2CCCCCC2)cc1 | -22.0% | -2.3%[46.1 µM] | . | ? | . | -5.4% | . | 0.0%
N#C/C(=N\Nc1ccccc1)C(N)=S | -4.4% | -3.3% | . | 3.5%[46.1 µM] | . | 26.8% | -60.2% | -4.0%
O=C(NC1(Cc2ccccc2)CCN(Cc2ccc(-c3ccccc3)cc2)C1=O)c1ccccc1 (configuration not stated) | -31.8% | . | . | -0.7% | . | -1.9% | . | 6.1%
Cc1nnc(SCC(=O)NCc2ccccc2)[nH]c1=O | 21.6% | 0.8% | -1.7% | 15.6% | 1.2% | 12.6% | 5.5% | ?
CCOc1ccc(CCNC(=O)CCNC(=O)c2ccco2)cc1OCC | -5.9% | ? | . | 0.5%[46.1 µM] | . | 2.8% | 2.3% | -2.1%
O=C(CCn1cccc1)Nc1cccc(F)c1 | 2.4% | 5.3% | -4.1% | 13.3% | 3.4% | -12.3% | 6.0% | 9.9%

Screening results from PubChem.
